Screening results (PubChem BioAssay)
MT1-MMP act inh: blockers of MT1-MMP proenzyme processing, primary screen, HT1080 RFP-PRO-GFP cells, GFP/RFP fluorescence; Matrix metalloproteinase-14 (Homo sapiens), P50281; GFP/RFP ratio fluorescence, overnight; percent of plate control window, DMSO zero; GFP/RFP ratio change, % at 20 µM; actives 0.061% (n = 360,000);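 active = GFP/RFP ratio change of at least 30% with cell ATP level not reduced by more than half and red fluorescence within 50% of control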; note: strong numbers were not always called active
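Material – HT1080 RFP-PRO-GFP cells · Control set – DMSO wells and RFP-L50D-GFP cells · Incubation – overnight cell settling, then overnight compound exposure, 37 °C, 5% CO2 · Compound dosing – single-point 20 µM compound, 1% DMSO · Read-out – GFP/RFP fluorescence ratio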
CSC inhib: cancer stem cell viability inhibitors, primary screen, luminescence. actives 1.1% (n = 300,000). cancer stem cell-like cells viability. inhibition, % at 7.5 µM. AID 2717, 2010;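 active = mean at 75% or more and at least half the replicates too; inconclusive = mean and replicates disagree; tested in HMLE shEcad cells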;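 note: 0% = median of negative and 100% = median of positive control wells; the first replicate is given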
Rce1 inhib: yeast Rce1p protease inhibitors, primary screen, biochemical, fluorescence, cell-free homogeneous. yeast membranes, quenched prenylated peptide cleavage fluorescence. CAAX prenyl protease 2 (Saccharomyces cerevisiae (strain ATCC 204508 / S288c)), Q03530. calls only. actives 0.27% (n = 290,000);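 active = fall in fluorescence gain of 50% or more versus controls, with final raw signal at or below 3038400; inconclusive = same 50% fall but final raw signal above 3038400; inactive = fall in fluorescence gain under 50%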;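 note: plate controls were neutral control wells for no effect and wells lacking membranes for full effect; tested at 10 µM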
HIV Env fusion: inhibitors of HIV-1 Env-driven cell-cell fusion, primary screen, HeLa-JRFL effector, CEM21 target cells, luciferase; actives 1.1% (n = 360,000); inhibition, % at 12.3 µM; AID 651610, 2012;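 active = mean replicate inhibition score of at least 50 and every replicate individually at or above 50; inconclusive = only one of the two criteria met; inactive = mean below 50 and not all replicates reaching 50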;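 note: 0% = plate neutral controls and 100% = maraviroc near 300 nM; one replicate is shown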
Yeast UUG start: modulators of yeast start codon fidelity, primary screen, whole organism, S. cerevisiae, single point, plate reader; S. cerevisiae UUG-firefly luciferase reporter, luminescence/redox ratio; activity score, % at 18.7 µM; actives 0.13% (n = 350,000);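 active = replicate mean at a twofold rise or more, about +100% in these data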;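 note: firefly luciferase made from a UUG start codon reports start codon fidelity; reporter light over untreated wells divided by growth signal over untreated wells; some hits fall short of that in this replicate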
eIF4H FP inh: human eIF4H binding inhibitors, primary screen, translation initiation inhibitor project, biochemical, uHTS, fluorescence polarization | eIF4H fluorescence polarization binding assay | inhibition, % at 35 µM | actives 0.94% (n = 290,000);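 active = 50% or more with normal probe brightness, or confirmed in later tests; inconclusive = above 50% with abnormal brightness, or retests that disagree; inactive = below 50% or failed in later tests; about a fifth of its hits are not listed in these tables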;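 note: calls also rest on retests at 20 µM and on dose response follow-up; 0% = protein and probe with vehicle and 100% = probe without protein; strong numbers were not always called active; many hits fall short of the cut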
PABP FP inh: PABP poly(A) RNA binding inhibitors, primary screen, biochemical, fluorescence polarization, uHTS; AID 2014, 2009; inhibition, % at 35 µM; actives 1% (n = 290,000); Polyadenylate-binding protein 1 (Homo sapiens), P11940;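 active = 50% or more with normal probe brightness, or confirmed in later tests; inconclusive = above 50% with abnormal brightness, or retests that disagree; inactive = below 50% or failed in later tests; about a fifth of its hits are not listed in these tables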;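 note: calls also rest on retests at 20 µM and on dose response follow-up; controls were probe without protein and protein plus probe with vehicle; some compounds called inactive have numbers as strong as hits; many hits fall short of the cut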
Target sequence (P11940 whole entry, looked up): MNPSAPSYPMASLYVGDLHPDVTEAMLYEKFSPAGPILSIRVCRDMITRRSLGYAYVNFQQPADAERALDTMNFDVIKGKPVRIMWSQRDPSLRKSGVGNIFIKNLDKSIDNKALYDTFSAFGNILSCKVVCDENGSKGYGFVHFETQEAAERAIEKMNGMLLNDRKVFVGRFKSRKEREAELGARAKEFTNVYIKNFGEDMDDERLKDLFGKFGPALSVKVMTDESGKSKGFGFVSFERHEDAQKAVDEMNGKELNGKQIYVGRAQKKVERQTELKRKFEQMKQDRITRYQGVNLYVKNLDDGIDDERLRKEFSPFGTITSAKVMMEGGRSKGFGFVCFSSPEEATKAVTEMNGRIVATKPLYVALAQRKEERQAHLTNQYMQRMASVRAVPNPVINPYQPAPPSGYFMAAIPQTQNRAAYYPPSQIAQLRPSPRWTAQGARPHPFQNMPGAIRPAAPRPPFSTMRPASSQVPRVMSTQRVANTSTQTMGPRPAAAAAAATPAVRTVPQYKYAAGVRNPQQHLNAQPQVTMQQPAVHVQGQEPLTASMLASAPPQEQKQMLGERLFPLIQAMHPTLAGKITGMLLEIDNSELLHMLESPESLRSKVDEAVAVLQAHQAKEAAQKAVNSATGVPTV
MT1-MMP act inh RFP: second read-out of MT1-MMP act inh, no call of its own (marks repeat the call); RFP signal change, %; measured here: RFP expression control read;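 0 = vehicle wells; hits needed this value within 50% of zero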
An asterisk follows results filed as active; i = inactive; u = inconclusive; x = no result given.

Key to letters – A = MT1-MMP act inh; B = MT1-MMP act inh RFP; C = CSC inhib; D = Rce1 inhib; E = HIV Env fusion; F = Yeast UUG start; G = eIF4H FP inh; H = PABP FP inh
CC12CCC(C[N+](C)(C)C1)C2(C)C (stereo unspecified)
  A = -1 | B = -1 | C = 7 | D = i | E = 0 | F = -16 | G = 7 | H = -9
CCCCCn1c(SCCC(C)C)nc2c1c(=O)[nH]c(=O)n2C
  A = -7 | B = -19 | C = -4 | D = i | E = x | F = -8 | G = 4 | H = -8
N#CCN=C(c1ccccc1)c1ccccc1
  A = 2 | B = 1 | C = -2 | D = x | E = 10 | F = -20 | G = x | H = x
COc1cc2c(cc1OC)C1(CCCC1)C(N)=C2C#N
  A = -2 | B = 0 | C = -10 | D = i | E = x | F = -13 | G = 12 | H = 2
CCOC(=O)N1CCc2c(sc(NC(=O)Cc3ccccc3)c2C(=O)c2ccc(OC)cc2)C1
  A = 1 | B = -3 | C = -2 | D = i | E = 20 | F = -18 | G = -6 | H = -9
COCCN(C(=O)c1ccc(N2CCCC2=O)cc1)c1c(N)n(Cc2ccccc2)c(=O)[nH]c1=O
  A = 1 | B = 2 | C = -9 | D = x | E = x | F = -8 | G = x | H = x
CSCC[C@H](NC(=O)c1ccc2ccccc2c1)C(=O)N1CCC2(CC1)NCCc1[nH]cnc12
  A = 0 | B = -3 | C = -9 | D = i | E = -8 | F = -11 | G = x | H = x
CCOc1cc(C(=O)Nc2cccc(OCC(=O)N3CCOCC3)c2)cc(OCC)c1OCC
  A = 3 | B = -3 | C = -23 | D = x | E = 19 | F = -11 | G = 3 | H = 10
CCc1nnc(NC(=O)c2ccc(Cl)c(S(=O)(=O)N3CCc4ccccc43)c2)s1
  A = 1 | B = -24 | C = 18 | D = i | E = x | F = -20 | G = -2 | H = 8
COc1cc(OC)c(S(=O)(=O)N2CCN(C(=O)c3ccco3)CC2)cc1NC(C)=O
  A = 0 | B = 0 | C = -19 | D = i | E = 10 | F = -21 | G = -4 | H = -10
CCCN(c1ccc(OCC)cc1)c1ncnc2nc[nH]c12
  A = -8 | B = -6 | C = -7 | D = i | E = 14 | F = -31 | G = 2 | H = -2
O=C(N/N=C/c1cccc([N+](=O)[O-])c1)c1ccc(Br)cc1
  A = 3 | B = 4 | C = x | D = i | E = -20 | F = x | G = 0 | H = -9
COC(=O)c1cccc(Nc2nc3ccccc3nc2C)c1
  A = -1 | B = -4 | C = -11 | D = i | E = x | F = -7 | G = -1 | H = 11
Cc1ccc2c(c1)C(=O)C(=O)N2Cc1ccc(Cl)cc1
  A = 1 | B = 3 | C = 40 | D = x | E = -49 | F = -1 | G = x | H = x
O=C(CSc1nnnn1C1CCCCC1)NCc1ccc2c(c1)OCO2
  A = 9 | B = -1 | C = 5 | D = i | E = x | F = x | G = -10 | H = -6
CCOc1ccc(-c2onc(C(F)(F)F)c2-c2cscn2)c(O)c1
  A = 1 | B = -10 | C = -3 | D = i | E = x | F = -2 | G = -4 | H = 2
Cc1cc(C(=O)NC2CCCC2)on1
  A = -1 | B = 6 | C = -6 | D = i | E = -9 | F = -3 | G = 0 | H = -2
Cn1cccc1/C=C(/C#N)C(N)=S
  A = 0 | B = -1 | C = 12 | D = i | E = -8 | F = -10 | G = u | H = -3
COC(=O)c1ccccc1NC(=O)C12CCC(C)(C(=O)O1)C2(C)C (stereo unspecified)
  A = -2 | B = 1 | C = -5 | D = i | E = -6 | F = 3 | G = -4 | H = -8
O=C(CCCn1c(=S)[nH]c2ccsc2c1=O)NC1CCCCC1
  A = -2 | B = 0 | C = -3 | D = i | E = -4 | F = -8 | G = 2 | H = 3
CN1CCN(C(=O)c2ccc(CN(c3ccccc3)S(=O)(=O)c3ccccc3)cc2)CC1
  A = -5 | B = -1 | C = 26 | D = i | E = 2 | F = -3 | G = -1 | H = -1
O=C(O)[C@H]1CC=C[C@H]2CCN(Cc3ccc(Cl)c(Cl)c3)C(=O)[C@@H]12
  A = 2 | B = 9 | C = x | D = x | E = -18 | F = -13 | G = x | H = x
Cc1ccccc1C(=O)c1cccn1CC(=O)NCc1ccco1
  A = 0 | B = 5 | C = -5 | D = i | E = x | F = 0 | G = -3 | H = -1
CCOc1cc(N2CCOCC2)c(OCC)cc1NC(=O)CN1C(=O)C2C3C=CC(C3)C2C1=O (stereo unspecified)
  A = -2 | B = 2 | C = -10 | D = i | E = -14 | F = x | G = 0 | H = -2
CSc1cccc(NC(=O)CCNS(=O)(=O)c2ccc3[nH]c(=O)oc3c2)c1
  A = 3 | B = 0 | C = -18 | D = i | E = 3 | F = -7 | G = -8 | H = 9
Cc1ccc(S(=O)(=O)N(C)/N=C/c2ccc(N(C)C)cc2)cc1
  A = 3 | B = -6 | C = -20 | D = i | E = 17 | F = -5 | G = -5 | H = -2
c1ccc2cc(N3CCCCC3)ccc2c1
  A = 2 | B = -1 | C = x | D = x | E = -7 | F = -19 | G = x | H = x
CC(=O)c1sc2nc(-c3ccccc3)cc(C)c2c1N
  A = 0 | B = -4 | C = -6 | D = i | E = 17 | F = -20 | G = 0 | H = 16
COc1ccc(N2C(=O)CSC23C(=O)N2CCCc4cccc3c42)cc1 (stereo unspecified)
  A = -3 | B = 2 | C = -6 | D = i | E = -103 | F = 9 | G = 2 | H = 3
CN1CCN(Cc2c(O)ccc3c2oc(=O)c2ccccc23)CC1
  A = 6 | B = 4 | C = -3 | D = i | E = x | F = 29 | G = -2 | H = 10
CCOc1cc2[nH]c(=O)n(Cc3ccccc3)c(=O)c2cc1OCC
  A = 1 | B = -1 | C = -11 | D = i | E = -9 | F = x | G = -9 | H = -1
COC(=S)Nc1cccc(C(F)(F)F)c1
  A = 0 | B = -6 | C = -11 | D = i | E = -15 | F = -7 | G = -3 | H = -3
Cc1ccc(S(=O)(=O)ON=C2CCN(S(=O)(=O)c3ccccc3)CC2)cc1
  A = 0 | B = 2 | C = -20 | D = i | E = -5 | F = -8 | G = -13 | H = -6
CC(=O)N1CCN(S(=O)(=O)c2cccc(C(=O)Nc3ccc(F)c(F)c3)c2)CC1
  A = 2 | B = -8 | C = -18 | D = i | E = 9 | F = 7 | G = 0 | H = -8
COc1ccc(S(=O)(=O)n2nc(OC(=O)c3cccs3)cc2NC(=O)c2cccs2)cc1
  A = 11 | B = 5 | C = -9 | D = i | E = -13 | F = -2 | G = -7 | H = 8
O=C(NCC(=O)N(c1ccccc1)C(C(=O)NC1CCCC1)c1ccncc1)c1ccco1 (stereo unspecified)
  A = -1 | B = 3 | C = x | D = i | E = x | F = -5 | G = x | H = x
CC1CC(C)(C)NC(=S)S1 (stereo unspecified)
  A = -1 | B = 0 | C = -9 | D = i | E = -8 | F = 11 | G = -4 | H = -5
CCOC(=O)C1=C(c2ccccc2)c2ccccc2OC1C(=O)OCC (stereo unspecified)
  A = -3 | B = -1 | C = x | D = x | E = -131 | F = 13 | G = x | H = x
Cc1cccc(C(=O)NCC(=O)NC2CCC(C)CC2)c1 (stereo unspecified)
  A = -17 | B = -9 | C = -12 | D = i | E = -8 | F = -14 | G = x | H = x
O=C(O)/C=C\C(=O)NCc1ccccc1
  A = 3 | B = 4 | C = -9 | D = i | E = -117 | F = -16 | G = -8 | H = -7
O=C1C2CC(O)CN2C(=O)N1c1ccccc1 (stereo unspecified)
  A = 0 | B = 0 | C = -3 | D = i | E = 0 | F = x | G = 10 | H = 5
COc1ccc(CCNC(=O)C2CCCN(c3ncccn3)C2)cc1 (stereo unspecified)
  A = -1 | B = 3 | C = -9 | D = i | E = 3 | F = x | G = 1 | H = u
CC(=O)N1CCCc2cc(S(=O)(=O)N(C)CC(=O)Nc3ccccc3)ccc21
  A = 10 | B = -2 | C = x | D = x | E = 4 | F = -5 | G = x | H = x
CC1CC1C(=O)Nc1nc(-c2ccccn2)cs1 (stereo unspecified)
  A = 5 | B = -2 | C = 2 | D = i | E = x | F = -36 | G = 5 | H = -8
O=C(c1ccco1)N1CCCC(c2nc3c(nnn3Cc3cccc(Cl)c3)c(=O)[nH]2)C1 (stereo unspecified)
  A = -1 | B = -5 | C = -13 | D = x | E = 13 | F = 12 | G = -10 | H = 7
CCOc1ccccc1N1CC(C(=O)Nc2cc(Cl)ccc2-n2cncn2)CC1=O (stereo unspecified)
  A = 4 | B = 7 | C = 5 | D = i | E = -6 | F = -2 | G = x | H = x
Cc1ccc2c(c1)CC(C)N2S(=O)(=O)c1nnc(NC(=O)CC(C)C)s1 (stereo unspecified)
  A = -9 | B = -11 | C = 18 | D = i | E = -2 | F = -13 | G = 1 | H = 7
Cc1cc(C)c(S(=O)(=O)N(C)CC(=O)NCc2ccncc2)c(C)c1
  A = -1 | B = -2 | C = 7 | D = i | E = 5 | F = -7 | G = -13 | H = -6
S=C1NCN(C2CCCCC2)CN1CCc1ccccc1
  A = -1 | B = 0 | C = -6 | D = i | E = 3 | F = -26 | G = -3 | H = -9
S=C(N/N=C/c1ccc2ncccc2c1)Nc1ccccc1
  A = -8 | B = -7 | C = -1 | D = i | E = -39 | F = x | G = -2 | H = u

Quoted from the listing.
Reading of COCCN(C(=O)c1ccc(N2CCCC2=O)cc1)c1c(N)n(Cc2ccccc2)c(=O)[nH]c1=O in MT1-MMP act inh RFP: 2
Reading of CCc1nnc(NC(=O)c2ccc(Cl)c(S(=O)(=O)N3CCc4ccccc43)c2)s1 in MT1-MMP act inh RFP: -24
Reading of CCOc1cc2[nH]c(=O)n(Cc3ccccc3)c(=O)c2cc1OCC in HIV Env fusion: -9
Reading of Cc1cc(C(=O)NC2CCCC2)on1 in PABP FP inh: -2

More results
Key to letters – A = MT1-MMP act inh; B = MT1-MMP act inh RFP; C = CSC inhib; D = Rce1 inhib; E = HIV Env fusion; F = Yeast UUG start; G = eIF4H FP inh; H = PABP FP inh
Cc1ccc(NC(=O)Cc2nnc(SCC(=O)Nc3nncs3)n2C)cc1
  A = 3 | B = 4 | C = -5 | D = i | E = -9 | F = -2 | G = -7 | H = -10
Fc1ccc2cnc(CCO[C@H]3CCCCO3)cc2c1
  A = 2 | B = 2 | C = 16 | D = x | E = -13 | F = -22 | G = x | H = x
CC(C)C[C@H](N)C(=O)N1CCC(C(=O)N[C@H](C(=O)NC(C)c2ccccc2)C(C)C)CC1 (stereo partly specified)
  A = 2 | B = 1 | C = 5 | D = i | E = x | F = -22 | G = -13 | H = 0
COc1cccc(OC)c1C(=O)Nc1nc2ccc([N+](=O)[O-])cc2s1
  A = -2 | B = 0 | C = 2 | D = i | E = -17 | F = 1 | G = 13 | H = 7
Fc1ccc(NC(=S)NCc2ccccc2Cl)cc1
  A = 2 | B = -1 | C = 3 | D = i | E = 18 | F = x | G = -4 | H = 3

Two entries from above, as labelled records.
Molecule: Cc1ccccc1C(=O)c1cccn1CC(=O)NCc1ccco1
  MT1-MMP act inh = 0; MT1-MMP act inh RFP = 5; CSC inhib = -5; Rce1 inhib = i; HIV Env fusion = x; Yeast UUG start = 0; eIF4H FP inh = -3; PABP FP inh = -1
Molecule: CCOc1cc(N2CCOCC2)c(OCC)cc1NC(=O)CN1C(=O)C2C3C=CC(C3)C2C1=O (stereo unspecified)
  MT1-MMP act inh = -2; MT1-MMP act inh RFP = 2; CSC inhib = -10; Rce1 inhib = i; HIV Env fusion = -14; Yeast UUG start = x; eIF4H FP inh = 0; PABP FP inh = -2
